ID4 binder = binders of human ID4 protein, primary screen, biochemical, small molecule microarray, single point. AID 624137, 2012. 1.2% of 31,000 active. DNA-binding protein inhibitor ID-4 (Homo sapiens), P47928. calls only. Flag-ID4 binding, fluorescence F/B;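 active = spot signal over background at p below 0.07 in all four prints; compounds were printed on slides so no solution concentration is given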;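 note: a binder raises fluorescence above local background on the spot; about 2 pmol printed per array spot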
Target sequence (P47928 whole entry, looked up): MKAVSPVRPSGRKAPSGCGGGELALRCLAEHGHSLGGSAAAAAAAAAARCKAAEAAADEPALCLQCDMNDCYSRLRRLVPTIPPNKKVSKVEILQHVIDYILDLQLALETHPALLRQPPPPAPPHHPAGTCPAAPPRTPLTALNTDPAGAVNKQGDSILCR
Calls only; i = inactive; + = active, no number. Some of the compounds tested. The share of hits here may be higher or lower than overall.

canonical_smiles	ID4 binder
COc1cccc(-c2cnc3c(c2)C(=O)N([C@@H](C)CO)C[C@H](C)[C@H](CN(C)Cc2cccnc2)O3)c1	i
Cc1cc(NC(=O)CSc2nc3ccccc3[nH]2)ccc1Cl	i
O=C(CSc1nnc(-c2ccccc2O)n1-c1ccccc1)N1CCN(c2ccccc2)CC1	i
C[C@H](O)C#Cc1cnc2c(c1)C(=O)N([C@H](C)CO)C[C@@H](C)[C@@H](CN(C)Cc1cccc(F)c1)O2	i
O=C(CSC1CC(=O)N(c2ccc(OC(F)(F)F)cc2)C1=O)Nc1ccc(Cl)cc1 (stereo not drawn)	i
CSc1ccc(CN(CCO)CCO)cc1	i
COc1ccc(NC(=O)Cn2nnc(-c3ccccc3Cl)n2)cc1Cl	i
COc1ccc(C)cc1N(CC(=O)Nc1c(C)cc(C)cc1C)S(C)(=O)=O	i
CC(C)CC#Cc1ccc2c(c1)O[C@H](CN(C)Cc1cccc(F)c1)[C@H](C)CN([C@@H](C)CO)S2(=O)=O	i
OCCCNc1ncnc2scc(-c3ccc(Br)cc3)c12	i
COc1ccc(C#Cc2ccc3c(c2)[C@]2(C(=O)N3)[C@H](c3ccc(O)cc3)N3[C@H](c4ccccc4)[C@H](c4ccccc4)OC(=O)[C@H]3[C@@H]2C(=O)O)cc1	i
COCC#Cc1ccc2c(c1)O[C@@H](CN(C)Cc1ccc3c(c1)OCO3)[C@@H](C)CN([C@H](C)CO)S2(=O)=O	i
CC(=O)N[C@@H]1CC[C@H](CC(=O)NCc2ccc(Cl)cc2)O[C@H]1CO	i
O=C(CSc1nc2ccccc2[nH]1)Nc1ccc(I)cc1	i
C/C=C/c1cnc2c(c1)C(=O)N([C@@H](C)CO)C[C@@H](C)[C@@H](CN(C)C(=O)C1CCC1)O2	i
C[C@@H]1CN([C@@H](C)CO)C(=O)c2cc(C#Cc3ccccc3F)cnc2O[C@@H]1CN(C)C(=O)Cc1ccccc1	i
C[C@H](CO)N1C[C@H](C)[C@H](CN(C)Cc2ccccc2)Oc2cc(C3=CCCC3)ccc2S1(=O)=O	i
Cc1cc(=O)oc2n[nH]c(CSc3ccc(Cl)cc3)c12	i
CCc1cccc(C)c1NC(=O)CSc1nnc(-c2ccccc2)n1-c1ccccc1	i
CC(=O)OC1=C(C(=O)c2ccccc2)N(C)S(=O)(=O)c2ccccc21	i
C[C@H](CO)N1C[C@H](C)[C@H](CN(C)C(=O)C2CC2)Oc2ncc(C#CC3CCCC3)cc2C1=O	i
CC(C)(C)c1ccc(S(=O)(=O)N2CCN(c3ccc([N+](=O)[O-])c(NCc4cccnc4)c3)CC2)cc1	i
CC(=O)OC1CCC(C)(O)C2OC(CC1(C)O)C(C(C)C)C2OC(=O)/C=C/c1ccccc1 (stereo not drawn)	i
Cc1ccccc1N(CC(=O)Nc1cccc(Cl)c1Cl)S(C)(=O)=O	i
CCCc1cc(=O)[nH]c(SCC(=O)Nc2cccc(F)c2)n1	i
COc1ccccc1-c1cnc2c(c1)C(=O)N([C@H](C)CO)C[C@@H](C)[C@@H](CN(C)CC1CCCC1)O2	i
C[C@H]1CN([C@@H](C)CO)C(=O)c2cc(/C=C/c3ccccc3)cnc2O[C@@H]1CN(C)C	i
CN(C)CC(=O)Nc1ccc2c(c1)[C@H]1C[C@@H](CC(=O)N3CCOCC3)O[C@H](CO)[C@H]1O2	i
Cc1ccc2[nH]c(C)c(CCC(=O)O)c(=O)c2c1	i
CC1=CCC(C(=O)O)C(C(=O)Nc2ccc(OC(F)(F)F)cc2)C1 (stereo not drawn)	i
COc1cccc(NC(=O)N[C@H]2C=C[C@@H](CC(=O)N3CCOCC3)O[C@@H]2CO)c1	i
COc1ccc(C2=NOC(C(=O)NCc3ccco3)C2)cc1 (stereo not drawn)	i
CCN(CC)c1ccc(NC(=O)c2ccc(Cl)cc2)c(N(CC)CC)n1	i
O=C(CSc1nc2cc(Cl)ccc2o1)c1cccc([N+](=O)[O-])c1	i
Cc1c(Cl)cccc1NC(=O)CN(c1ccc(I)cc1)S(C)(=O)=O	i
COc1cc(NC(=O)COc2cccc(C)c2)c(OC)cc1Cl	i
O=C(C[C@@H]1CC[C@@H](NC(=O)Nc2ccc3c(c2)OCO3)[C@@H](CO)O1)NCc1ccc(Cl)cc1	i
C[C@H](CO)N1C[C@H](C)[C@H](CN(C)CC2CCOCC2)Oc2cc(C#CC3CC3)ccc2S1(=O)=O	i
CC(=O)c1ccc(NC(=O)CSc2nnc3n(-c4ccccc4)c(=O)c4c5c(sc4n23)COC(C)(C)C5)cc1	i
C[C@@H]1CN([C@@H](C)CO)C(=O)c2cc(C3=CCCC3)cnc2O[C@H]1CN(C)Cc1cccc(F)c1	i

Next part.
SMILES | ID4 binder
CO[C@H](CN(C)C(=O)c1cnccn1)[C@H](C)CN([C@@H](C)CO)S(=O)(=O)c1ccc(F)cc1 | i
COc1cc2c(cc1O)C=[N+](Cc1cc3c(cc1Br)OCO3)CC2 | i
O=C(C[C@H]1CC[C@H](NC(=O)C2CC2)[C@@H](CO)O1)NC1CCC1 | i
C[C@@H]1CN([C@@H](C)CO)C(=O)c2ccccc2-c2ccccc2CO[C@@H]1CN(C)Cc1ccc(O)cc1 | i
C[C@@H]1CN([C@H](C)CO)S(=O)(=O)c2ccc(-c3ccncc3)cc2O[C@H]1CN(C)Cc1ccccc1 | i
COc1cc(CC(C)C(C)Cc2ccc(O)c(OC)c2)ccc1O (stereo not drawn) | i
O=C(COc1ccccc1[N+](=O)[O-])Nc1cc(-c2nc3ccccc3o2)ccc1Cl | i
CCCNC(=O)N(C)C[C@@H]1Oc2ncc(-c3cccc(C#N)c3)cc2C(=O)N([C@@H](C)CO)C[C@@H]1C | i
COc1cccc(-c2ccc3c(c2)O[C@@H](CN(C)C)[C@H](C)CN([C@H](C)CO)S3(=O)=O)c1 | i
C[C@@H]1CN([C@@H](C)CO)C(=O)c2cc(-c3ccccc3F)cnc2O[C@@H]1CN(C)C(=O)C1CCCCC1 | i
O=C(CSc1nc2ccccc2c(=O)n1-c1ccccc1)NCC1CCCO1 (stereo not drawn) | i
CC(C)(C)c1ccc(C(O)CCCN2CCC(C(O)(c3ccccc3)c3ccccc3)CC2)cc1 (stereo not drawn) | i
CCCC#Cc1cnc2c(c1)C(=O)N([C@H](C)CO)C[C@@H](C)[C@@H](CN(C)C(=O)C1CCC1)O2 | i
Cn1c(SCC(=O)Nc2ccc(Cl)cc2Cl)nnc1-c1ccc(Br)cc1 | i
O=C(c1cnn(-c2ccccc2)c1)c1ccccc1O | i

Next part (6 carried over from the part before).
SMILES | ID4 binder
C[C@@H]1CN([C@@H](C)CO)C(=O)c2cc(-c3ccccc3F)cnc2O[C@@H]1CN(C)C(=O)C1CCCCC1 | i
O=C(CSc1nc2ccccc2c(=O)n1-c1ccccc1)NCC1CCCO1 (stereo not drawn) | i
CC(C)(C)c1ccc(C(O)CCCN2CCC(C(O)(c3ccccc3)c3ccccc3)CC2)cc1 (stereo not drawn) | i
CCCC#Cc1cnc2c(c1)C(=O)N([C@H](C)CO)C[C@@H](C)[C@@H](CN(C)C(=O)C1CCC1)O2 | i
Cn1c(SCC(=O)Nc2ccc(Cl)cc2Cl)nnc1-c1ccc(Br)cc1 | i
O=C(c1cnn(-c2ccccc2)c1)c1ccccc1O | i
C[C@@H](NC(=O)C[C@@H]1CC[C@H](NC(=O)c2cccnc2)[C@@H](CO)O1)c1ccccc1 | i
C[C@@H]1CN([C@H](C)CO)C(=O)CCCn2nncc2CO[C@H]1CN(C)Cc1cccc(C(F)(F)F)c1 | i
Cc1ccc(S(=O)(=O)N[C@@H]2CC[C@H](CC(=O)N3CCC(Cc4ccccc4)CC3)O[C@H]2CO)cc1 | i
N#C[C@@H]1[C@@H](c2ccc(/C=C/c3ccccc3)cc2)[C@@H](CO)N1C(=O)C1CCC1 | i
O=C(O)C[C@@H]1CC[C@H](NC(=O)c2ccccc2F)[C@H](CO)O1 | i
COC(=O)c1c(-c2ccccc2)csc1NC(=O)CSc1ncnc2sc(C)c(C)c12 | i
Cc1ccccc1-c1nc(S(=O)(=O)c2ccc(Cl)cc2)c(NCc2cccnc2)o1 | i
C[C@H]1CN([C@@H](C)CO)C(=O)c2cc(Br)cnc2O[C@@H]1CN(C)C(=O)c1ccccc1 | i
CCC(=O)N[C@@H]1C=C[C@H](CC(=O)NCC2CCCCC2)O[C@H]1CO | i
N#Cc1c(NC(=O)c2cc3nc(-c4ccco4)cc(C(F)(F)F)n3n2)sc2c1CCCCC2 | i
CN(C)Cc1ccc(O)c(CN(C)C)n1 | i
CC(C)NC(=O)N[C@@H]1C=C[C@H](CC(=O)NC2Cc3ccccc3C2)O[C@@H]1CO | i
C[C@@H]1CN([C@H](C)CO)C(=O)c2cc(C#CC(C)(C)O)cnc2O[C@H]1CN(C)Cc1ccccn1 | i
Cc1ccccc1-c1ccc2c(c1)O[C@@H](CN(C)C)[C@@H](C)CN([C@@H](C)CO)S2(=O)=O | i
COc1ccc(C#Cc2ccc3c(c2)O[C@H](CN(C)C)[C@@H](C)CN([C@@H](C)CO)S3(=O)=O)cc1 | i
C[C@@H]1CN([C@@H](C)CO)C(=O)c2cc(-c3cncnc3)cnc2O[C@H]1CN(C)CC1CCOCC1 | i
Cc1ccc(-c2nnc(N3CCN(C(=O)CSc4nc(C)cc(C)n4)CC3)c3ccccc23)cc1 | +
O=C(C[C@H]1CC[C@H](NC(=O)c2ccc(F)cc2)[C@H](CO)O1)NCCc1ccccc1 | i
N#C[C@H]1[C@@H](c2ccc(C3=CCCCC3)cc2)[C@@H](CO)N1C(=O)c1cccc(F)c1 | i
COc1ccc(S(=O)(=O)N2CCC(C(=O)Nc3ccc(NC(C)=O)cc3)CC2)cc1OC | i
C[C@H](CO)N1C[C@H](C)[C@@H](CN(C)C(=O)C2CCCCC2)Oc2ncc(-c3ccccc3)cc2C1=O | i
Cc1ccccc1-c1cnc2c(c1)C(=O)N([C@@H](C)CO)C[C@H](C)[C@H](CN(C)Cc1cccnc1)O2 | i
CCN1C(=O)CS/C1=N\N1CCOCC1 | i
O=C(O)COc1ccc(NC(=O)c2cccc(I)c2)cc1 | i
CNC[C@H]1Oc2ncc(C#Cc3cccc(OC)c3)cc2C(=O)N([C@H](C)CO)C[C@H]1C | i
C[C@@H]1CN([C@@H](C)CO)C(=O)c2cc(/C=C/c3ccccc3)cnc2O[C@H]1CN(C)Cc1ccc2c(c1)OCO2 | i
CCCC#Cc1cnc2c(c1)C(=O)N([C@@H](C)CO)C[C@@H](C)[C@@H](CN(C)C(=O)c1cccc(F)c1)O2 | i
C[C@@H]1CN([C@@H](C)CO)C(=O)c2cc(-c3cccc(F)c3)cnc2O[C@@H]1CN(C)CC1CCOCC1 | i
CC1(C)CC(=O)c2cc(C(=O)NCCCN3CCOCC3)c(=O)n(-c3ccccc3)c2C1 | i
CCC(=O)N[C@H]1CC[C@@H](CC(=O)NCC2CCCCC2)O[C@@H]1CO | i

Part of the list above in another layout.
> C[C@@H]1CN([C@@H](C)CO)C(=O)c2cc(/C=C/c3ccccc3)cnc2O[C@H]1CN(C)Cc1ccc2c(c1)OCO2
- ID4 binder: i

> CCCC#Cc1cnc2c(c1)C(=O)N([C@@H](C)CO)C[C@@H](C)[C@@H](CN(C)C(=O)c1cccc(F)c1)O2
- ID4 binder: i

(next part)
SMILES | ID4 binder
O=C(CN1CCOCC1)Nc1sc2c(c1C(=O)Nc1ccc(Br)cc1)CCC2 | i
C[C@H](O)C#Cc1cnc2c(c1)C(=O)N([C@H](C)CO)C[C@@H](C)[C@H](CN(C)CC1CCCCC1)O2 | i
O=C(C[C@H]1CC[C@H](NS(=O)(=O)c2ccccc2)[C@H](CO)O1)NCc1ccncn1 | i
Cc1cc(C)c(OCC(=O)Nc2c[nH]c(=O)[nH]c2=O)cc1C | i
CNS(=O)(=O)c1ccc2c(c1)oc(=O)c1cc(S(=O)(=O)NC)ccc12 | i
C[C@H](CO)N1C[C@H](C)[C@H](CN(C)C(=O)CC2CC2)Oc2ncc(C#CCC3CCCC3)cc2C1=O | i
CSCCC(NC=O)C(=O)NC(CC(C)C)C(=O)NC(Cc1ccccc1)C(=O)O (stereo not drawn) | i
Cc1ccc(-c2cnc3c(c2)C(=O)N([C@@H](C)CO)C[C@H](C)[C@H](CN(C)C(=O)CN(C)C)O3)cc1 | i
Cc1ccccc1NC(=O)CSc1nnc(-c2cccc(Cl)c2)n1C | i
Cc1ccc(CN2C(=O)C(O)(CC(=O)c3cccc(N)c3)c3cc(Cl)ccc32)cc1 (stereo not drawn) | i
Cc1ccc(S(=O)(=O)NC(C(=O)Oc2cc3oc(=O)cc(-c4ccccc4)c3cc2Cl)C(C)C)cc1 (stereo not drawn) | i
CCCC#Cc1cnc2c(c1)C(=O)N([C@H](C)CO)C[C@@H](C)[C@@H](CN(C)C(=O)Nc1cc(F)ccc1F)O2 | i
COc1ccc([N+](=O)[O-])cc1NC(=O)CN(C)S(=O)(=O)c1ccc(Br)cc1 | i
CCCNC(=O)Nc1ccc2c(c1)OC[C@@H](C)N(C)C[C@@H](C)[C@H](OC)CN(C)C2=O | i
CC(=O)O[C@@H]1CC2C(C)(C)CCC[C@]2(CO)C2=C1C(=O)C(C(C)C)C(=O)C2=O (stereo partly drawn) | i
Cn1c(CN2CCOCC2)nnc1SCC(=O)Nc1cc(C(F)(F)F)ccc1Cl | i
CNC[C@@H]1Oc2cc(-c3ccccc3OC)ccc2S(=O)(=O)N([C@@H](C)CO)C[C@H]1C | i
O=C(CSc1nnc(-c2cccs2)n1-c1ccccc1)N1CCc2ccccc21 | i
C[C@H]1CN([C@@H](C)CO)C(=O)CCCn2cc(nn2)CO[C@H]1CN(C)CC1CCCCC1 | i
O=C1OC(c2ccccc2)C(O)(c2ccccc2)C12CCCCC2 (stereo not drawn) | i
O=C(C[C@H]1C=C[C@H](NC(=O)c2ccccn2)[C@H](CO)O1)NCc1cc(F)cc(F)c1 | i
C[C@@H]1CN([C@@H](C)CO)C(=O)c2cc(/C=C/c3ccccc3)cnc2O[C@H]1CN(C)Cc1ccncc1 | i
